Sa RN4220 lethal: kills Staphylococcus aureus RN4220; S. aureus RN4220 growth, OD600, 16 h; inhibition, % (test concentration not listed); hit rate 0.33% among 330,000;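 active means z-score of -3 or lower and OD600 up to 0.18 on both plates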;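 further: plate controls were untreated cells for no effect and reference antibiotic for full effect; stock transfer was 100 nL into about 80 µL; one replicate is shown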
ugtP null kill: compounds lethal to S. aureus RN4220 ugtP deletion mutant. OD600 growth, 16 h; some inactives read as strong as hits. growth inhibition, % (concentration not given with the values). hit rate 0.54% among 330,000. AID 1259309;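 active means z-score under -3 and OD600 up to 0.15 on both plates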;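 further: plate controls were untreated wells for no effect and antibiotic for full effect; wells of about 80 µL received 100 nL stock; the first replicate is given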
BJeLR viability: kills HRASV12-expressing BJeLR cells. BJeLR (HRASV12) viability, CellTiter-Glo ATP luminescence, 48 h; reference of the scale not given here. inhibition, % (concentration not given with the values). hit rate 0.17% among 300,000;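 active means replicate mean above 50%; inconclusive means above 50% but judged a plate artefact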;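 further: 50 nL library stock added to about 25 µL; numbers are from one replicate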
Mtb hypoxia inh: Mtb hypoxia fluorescent reporter inhibition. M. tuberculosis hypoxia-regulated fluorescent reporter, fluorescence. fluorescence inhibition, % (concentration not given with the values). hit rate 0.1% among 300,000. AID 1159583;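 active means 35 to 45% if threefold the growth effect, above 45% if 1.5-fold the growth effect; inactive means the rest, general growth blockers included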;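 further: wells of about 50 µL received 100 nL stock; 0% = vehicle wells and 100% = reference inhibitor wells; whole bacteria with a GFP reporter of the hypoxia response; strong numbers were not always called active; many hits fall short of the cut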
Autofluor counter: compound fluorescence in toxin protease inhibitor counterscreen | hit rate 3.1% among 360,000 | compound autofluorescence counterscreen, microsphere flow cytometry; hits give high values | fluorescence intensity (test concentration not listed);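 active means at least 3 SD above the mean of all compounds, about 16000 in these data; inconclusive means too few beads counted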;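 further: 100 nL of 1 mM stock went into each well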
PrP UTR inh: inhibition of PrP 5' UTR reporter expression. hit rate 0.35% among 340,000. cell-based PrP 5' UTR mRNA reporter, plate reader. inhibition, % (no concentration beside the values);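 active means every replicate at 50% or more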;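 further: 0 = median of the neutral control wells; tested in H4 reporter cells; numbers are from one replicate; inactives centre near -14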
Mtb hypoxia inh growth: second read-out of Mtb hypoxia inh, no call of its own (marks repeat the call); growth inhibition, %; measured here: M. tuberculosis growth (absorbance);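 0% = vehicle and 100% = reference antibiotic; read after six days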
* = called active by the depositor; u = inconclusive; x = not tested or not shown.

SMILES | Sa RN4220 lethal | ugtP null kill | BJeLR viability | Mtb hypoxia inh | Mtb hypoxia inh growth | Autofluor counter | PrP UTR inh
O=C(CCSCCC(=O)NCCN1CCOCC1)NCCN1CCOCC1 | 2.2 | 4 | 5 | 16 | -1 | 4149 | -24
CC(=O)C1=NN(c2ccccc2)C(c2ccc3c(c2)OCO3)N1c1ccccc1 (stereo not given) | -1.3 | 7 | 6 | 5 | 7 | 2674 | -25
CCc1ccc(S(=O)(=O)c2nnn3c2nc(N2CCOCC2)c2ccccc23)cc1 | 5.7 | 5 | 6 | 14 | 2 | 4247 | -13
O=C(CC1C(=O)NCCN1Cc1ccoc1)NCCCn1ncc2ccccc21 (stereo not given) | 2.8 | -2 | 8 | 2 | 10 | 4352 | -17
CC(c1ccccc1)n1c(-c2ccc(Cl)cc2)n[nH]c1=S (stereo not given) | 1.0 | 10 | -20 | 15 | 17 | 3783 | -13
CC(COc1ccccc1)N1CCC(CO)(Cc2ccccc2)CC1 (stereo not given) | 2.0 | 11 | -2 | 6 | 2 | 4591 | 48
CC(C)c1nc(SCC(=O)c2c[nH]c3ccccc23)n[nH]1 | 2.8 | 14 | 9 | 4 | 3 | 4679 | -3
CN(C)S(=O)(=O)N1CCc2ccccc2C1 | 1.7 | -1 | -3 | 4 | 5 | 24594* | -23
COCCNC(=O)C(=O)NN=C(C)CC(=O)Nc1ccc(Cl)cc1Cl | 8.2 | -4 | x | 8 | 2 | x | x
COc1ccc(/C=N/n2cncn2)cc1CSc1ccccn1 | x | x | -5 | x | x | 2914 | -16
CCOC(=O)CNC(=O)CSc1ncnc2c1nnn2-c1ccc(F)cc1 | 3.0 | 10 | 17 | 7 | 5 | 2547 | -11
COc1ccc(NCc2nnc(SCC(=O)N3CCCc4ccccc43)n2C)cc1 | 4.4 | -2 | -1 | 16 | 6 | 12109 | -17
Cc1ccc(N(C(=O)c2ccccn2)C(C(=O)NC2CCCCC2)c2ccncc2)cc1 (stereo not given) | -1.3 | 0 | -9 | 12 | 2 | 3829 | -9
COc1ccccc1NC(=O)CCSc1ccc(C)cc1 | 9.7 | 7 | -10 | 4 | 9 | 2000 | 0
Cc1ccc(C)c(S(=O)(=O)Nc2cc(C)on2)c1 | 5.3 | 7 | 2 | -13 | -17 | 4503 | -2
O=C1CN(S(=O)(=O)c2ccc(Cl)cc2C(F)(F)F)CCN1 | 2.5 | 3 | 5 | 13 | 6 | 3827 | -24
CSc1nc2[nH]c3c(c2c2nnnn12)CCCC3 | 1.0 | -15 | 2 | x | x | 2224 | -11
Cc1ccc(C(=O)/C=C/Nc2ccc([N+](=O)[O-])cc2Br)cc1 | 1.4 | 0 | 6 | x | x | 4714 | -123
Cc1noc(C)c1S(=O)(=O)N(CC(=O)O)c1ccc2c(c1)OCO2 | 3.1 | -3 | -8 | x | x | 2731 | -11
CN(C)S(=O)(=O)c1cccc(C(=O)Nc2cccnc2)c1 | -1.2 | 9 | 0 | x | x | 3869 | -22
Cc1cc(NC(=O)CSCC(=O)Nc2ccc(C)c(C)c2)no1 | 4.3 | 5 | x | 9 | 6 | 3092 | -8
COc1ccc(CCNC(=O)c2ccc(COc3ccccc3OC)o2)cc1 | 1.2 | -7 | -1 | 0 | 6 | 3152 | -12
O=C1CSCN1c1ccc(Cl)cc1 | 5.3 | 2 | -5 | -4 | 2 | 2532 | -28
Cc1cc(C(=O)CSc2n[nH]c(N)n2)c(C)n1C1CC1 | -8.6 | -5 | 4 | 21 | 13 | 2857 | -1
O=C(c1ccc(-c2ccccc2)cc1)N1CCN(c2ccccc2)CC1 | 2.8 | -3 | 9 | 0 | -2 | 4181 | -16
Cc1ccc(C2=CC(c3ccccc3)n3ncnc3N2)cc1 (stereo not given) | x | x | 3 | x | x | 3844 | -6
Cc1ccc(C(=O)NNC(=O)Cc2csc(-c3csc(C)n3)n2)cc1 | 3.3 | 9 | -5 | 6 | 8 | 6137 | -23
Cc1ccccc1NC(=O)c1ccc([N+](=O)[O-])o1 | 1.4 | 9 | -1 | 10 | 27 | 2587 | -26
S=c1[nH]nc(-c2ccc3ccccc3n2)n1-c1ccccc1 | 6.5 | 3 | 8 | -2 | 6 | 2043 | -8
COc1ccc(C2C(C#N)=C(N)Oc3n[nH]c(C)c32)cc1CN1CCN(c2ccc(F)cc2)CC1 (stereo not given) | 24 | 0 | 3 | 10 | 19 | 24165* | -5
O=C1NC(=S)N/C1=C\c1ccc(Oc2ccc(C(F)(F)F)cc2[N+](=O)[O-])c(Cl)c1 | 6.8 | 9 | 9 | -1 | 4 | u | 11
Cc1ccc(-c2nnn(CC(=O)Nc3ccc(S(=O)(=O)N4CCC(C)CC4)cc3)n2)cc1 | 4.7 | -3 | -1 | -5 | 6 | 9459 | -4
COc1ccc(COCC(O)CN2CCOCC2)cc1OC (stereo not given) | 2.6 | -7 | 4 | x | x | 2520 | 1
CCOC(=O)c1c(NC(=O)C(=O)N/N=C/c2ccc(OCC)cc2)sc2c1CCCCC2 | x | x | 0 | x | x | 8517 | -32
COc1ccc(CCNC(=O)[C@H](C)N2C(=O)N3CCc4c([nH]c5ccccc45)[C@@]3(C)C2=O)cc1 | -4.1 | -3 | 1 | x | x | 5797 | -6
COc1cccc(-c2nnc(N(C)C(=O)C3CCOC3)s2)c1 (stereo not given) | 1.1 | 2 | -6 | x | x | 3613 | -6
Cc1ccc([N+](=O)[O-])cc1NC(=O)/C=C/C(=O)O | 7.2 | 2 | -7 | 5 | 2 | 4955 | 0
O=C(CSCCO)Nc1cccc(C(F)(F)F)c1 | 2.7 | -5 | 0 | 2 | 11 | 11038 | -17
O=C(C=C1CCN(c2ncc(C(F)(F)F)cc2Cl)CC1)NNC(=O)Nc1ccccc1 | 3.3 | 7 | -15 | 14 | 11 | 10393 | -17
Cc1cccc(N2CC(C(=O)NC3CCCCCC3)CC2=O)c1C (stereo not given) | 3.6 | 5 | x | 2 | 6 | 6658 | -6
COc1ccc(C(=O)NC(=S)Nc2nc(C)c(C(=O)N(C)C)s2)cc1 | 6.9 | 20 | -11 | -1 | 3 | 8423 | -6
CON=CC(C#N)=Cc1cc(C(=O)c2ccc(F)cc2)cn1C | 1.6 | -2 | x | -3 | -1 | x | x
CCOC(=O)c1[nH]c2ccc(Cl)cc2c1NC(=O)c1nonc1C | -2.3 | -16 | 1 | -4 | 1 | 23712* | -14
Cc1ccc(N2C(=O)C3CCCN3C2=S)cc1Cl (stereo not given) | 3.9 | 0 | -8 | -1 | 1 | 3918 | -10
NC(=O)COC(=O)c1c2c(nc3ccccc13)CCCC2 | 0.9 | 7 | 3 | 10 | 13 | 4010 | -12
COC(=O)[C@@H]1C[C@H]2CC[C@H](O)C[C@H]2N1Cc1ccccc1OS(=O)(=O)c1ccc(C)cc1 | x | x | -14 | x | x | 5923 | -27
CCN(CC)CCNC(=O)CN1C(=O)COc2ccc(S(=O)(=O)N3CCOCC3)cc21 | 3.5 | 8 | 3 | -3 | -1 | 4783 | -10
Nc1c(C(=O)NCc2ccccc2)c2nc3ccccc3nc2n1-c1ccc2c(c1)OCO2 | -6.2 | -1 | -10 | 8 | -3 | 10578 | 2
Cc1ccc2[nH]c3c(c2c1)CN(C(=O)CN1CCCCC1)CC3 | 3.4 | 5 | 0 | 6 | 3 | x | x
CSc1ccc(/C=C/C(=O)OCC(=O)N2CCc3ccccc32)cc1 | 3.6 | 4 | x | 12 | 3 | 2672 | -8
CC1C(=O)N2CCCc3cc(S(=O)(=O)NCCc4ccccc4)cc1c32 (stereo not given) | 3.1 | 5 | 2 | 0 | 1 | 4936 | -28
Cc1ccc(C(=O)OCC(=O)Nc2ccc(S(N)(=O)=O)cc2)c(O)c1 | 3.1 | 9 | -10 | -9 | 9 | 3206 | -15
Nc1c(N(CCC2=CCCCC2)C(=O)C2CC2)c(=O)[nH]c(=O)n1Cc1ccccc1 | -1.1 | 5 | -7 | 1 | -5 | 7071 | 0
CC(C)CN(C(=O)COC(=O)C12CC3CC(CC(O)(C3)C1)C2)C1CCS(=O)(=O)C1 (stereo not given) | 2.9 | 2 | 0 | 10 | 4 | 6961 | -3
Cn1c(O)c(Cc2ccc(OCc3ccccc3)cc2)c(=O)n(C)c1=O | 2.9 | 1 | -9 | -1 | 0 | 3886 | -2
CC(C)C[C@H](NC(=O)c1nc[nH]c1C(=O)N1CCN(C(=O)OC(C)(C)C)CC1)C(=O)OCc1ccccc1 | x | x | 2 | x | x | 3341 | 11
Cc1cc(NC(=O)CCCC(=O)NCc2cccs2)no1 | -0.5 | 0 | -5 | 18 | 5 | 3304 | -70
Cc1c(Cl)ccc2c(C(=O)NC(C)c3ccncc3)cc(-c3ccncc3)nc12 (stereo not given) | -3.7 | 1 | 3 | -17 | -4 | x | x
Cc1cc(-c2ccc(NS(=O)(=O)c3ccccc3)c(C)c2)ccc1NS(=O)(=O)c1ccccc1 | -3.3 | 19 | x | 6 | 2 | 2903 | -13
CCOC(=O)c1cnc[nH]c1=O | -0.2 | 6 | x | 8 | 2 | 3041 | -10

Whole records as entered above.
Cc1ccc(C(=O)OCC(=O)Nc2ccc(S(N)(=O)=O)cc2)c(O)c1 in the list: Sa RN4220 lethal = 3.1; ugtP null kill = 9; BJeLR viability = -10; Mtb hypoxia inh = -9; Mtb hypoxia inh growth = 9; Autofluor counter = 3206; PrP UTR inh = -15
Nc1c(N(CCC2=CCCCC2)C(=O)C2CC2)c(=O)[nH]c(=O)n1Cc1ccccc1 in the list: Sa RN4220 lethal = -1.1; ugtP null kill = 5; BJeLR viability = -7; Mtb hypoxia inh = 1; Mtb hypoxia inh growth = -5; Autofluor counter = 7071; PrP UTR inh = 0

Next part
SMILES | Sa RN4220 lethal | ugtP null kill | BJeLR viability | Mtb hypoxia inh | Mtb hypoxia inh growth | Autofluor counter | PrP UTR inh
COC1C(OC(=O)c2ccc(C)[nH]2)C(O)C(Oc2ccc3c(O)c(NC(=O)c4ccc(O)c(CC=C(C)C)c4)c(=O)oc3c2Cl)OC1(C)C (stereo not given) | 94* | 100* | x | x | x | 4283 | -4
CCOC(=O)C1CCN(c2cc3c(cc2NC(=O)c2ccccc2)n(C)c(=O)n3C)CC1 | 1.3 | -8 | 0 | -6 | 21 | 5439 | -3
COc1ccc(N(C)C2=NS(=O)(=O)c3ccccc32)cc1 | 0.9 | -3 | 20 | 6 | 2 | 3932 | -2
O=C(NN=Cc1ccsc1)c1c[nH]c2ccccc12 | 0.5 | -5 | x | 6 | 15 | x | x
O=C(NCC(=O)N(c1cccnc1)C(C(=O)NC1CCCCC1)c1ccccc1F)c1ccco1 (stereo not given) | -1.0 | 1 | 12 | -4 | 2 | 3844 | -13
Cc1occc1C(=O)N/N=C/C1=C(N2CCOCC2)C(=C\c2ccc(Cl)cc2Cl)/CC1 | x | x | -7 | x | x | 2044 | -26
CC(C)CS(=O)(=O)C1=NSC2=NC(=O)/C(=C\c3ccc(OC(=O)c4ccco4)cc3)C(=N)N21 | 5.4 | -1 | -3 | 0 | -3 | 4599 | -16
Cc1ccc(NC(=O)Nc2cc(C)on2)cc1 | 4.6 | 21 | 11 | 4 | 7 | 3353 | -67
COc1ccc2c(C)cc(SCC(=O)NCC3CCCO3)nc2c1 (stereo not given) | -2.4 | -2 | x | -4 | -5 | 2992 | -12
Cc1ccc(N(C(=O)c2ccco2)C(C(=O)NC2CCCC2)c2cccnc2)cc1 (stereo not given) | 2.5 | 1 | 6 | 9 | 12 | 5348 | -11
O=C(Nc1nnc(COc2ccccc2)s1)C1CCN(S(=O)(=O)c2ccc(Cl)cc2)CC1 | 0.6 | 0 | 2 | 5 | 0 | 23493* | -12
Cn1cccc1C(=O)OCC(=O)NCCc1ccc(S(N)(=O)=O)cc1 | 3.6 | 2 | x | -22 | 8 | 4153 | 5
Cc1c(/C=N/NC(=O)CNc2ccccc2)c2ccccn2c1C(=O)c1ccc(Cl)cc1 | x | x | -3 | x | x | 7240 | -1
S=C(Nc1ccc(Cl)c(Cl)c1)NC1CCCCC1 | 74 | 75 | -3 | 0 | 5 | 21140* | -33
COc1ccccc1CN1CC(C(=O)N2CCC(OC)CC2)CCC1=O (stereo not given) | 3.4 | 9 | -2 | 7 | 9 | 6036 | -6

Screening results from PubChem BioAssay.

Outcome played no part in choosing rows; 4% or so of the library scored in one or more.
